BasE inh – inhibitors of Acinetobacter baumannii siderophore enzyme BasE | AID 485350 | inhibition, % (no concentration beside the values) | 0.1% of 84,000 active | purified BasE, fluorescence polarization binding displacement;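 active means both replicates above 25% with normal brightness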;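 further: 0% = negative plate control signal and 100% = positive plate control signal; stock transfer was 100 nL into about 30 µL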
LANA-nucl inh – inhibitors of KSHV LANA binding to nucleosomes; FITC-LANA1-23 / chicken nucleosome fluorescence polarization; hits give low values; z-score (concentration not given with the values); 0.3% of 51,000 active; AID 720717;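 active means both repeat wells score below -2 in polarization z-score versus plate sample wells, excluding overly bright wells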;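 further: 100 nL library stock added to about 30 µL; numbers are from one replicate; some results filed as inactive read as strong as hits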
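Assay system: purified chicken nucleosomes with FITC-labelled LANA N-terminal peptide (1-23) / Probe or stimulus: 50 nM FITC-LANA1-23 probe / Compound dosing: pin-transferred compound, 100 nL / Times: compound with peptide–nucleosome mix 10–45 min at room temperature / Technique: fluorescence polarization, 480 nm excitation, 535 nm parallel and perpendicular emission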
* hit, by the source's call; / = not tested or not shown; & = joins results of further samples. Some of the compounds tested; rates above refer to the full screens.

| Compound | BasE inh | LANA-nucl inh |
| --- | --- | --- |
| CCN(CC)CCOC(=O)C(Cc1cccc2ccccc12)CC1CCCO1 (stereo not given) | -2.4&1.2 | 0.188&0.784&-0.202 |
| CC(OC(=O)c1ccccn1)C(=O)Nc1ccc(C(N)=O)cc1 (stereo not given) | 0.6 | / |
| COC(=O)c1cccc(Cn2c(C)nc3ccccc3c2=O)c1 | -1.1 | 0.144 |
| CCNC(=S)Nc1sc2c(c1C(=O)OCC)CC(C)(C)OC2 | 1.2 | / |
| COC(=O)C(Cc1c[nH]c2ccccc12)NS(=O)(=O)c1ccc(Cl)cc1 (stereo not given) | -3.4 | / |
| COC(=O)C(N)C12CC3CC(CC(C3)C1)C2 (stereo not given) | 82.4 | 0.389 |
| CSc1ccccc1NC=C(C#N)C#N | -0.7 | 0.398 |
| Cc1cc(=O)oc2oc3c(O)c(O)ccc3c12 | -2.4 | 0.758 |
| Cn1c(=O)c2c(nc(SCC(=O)N3CCCC3)n2C)n(C)c1=O | -2.1 | 0.88 |
| O=C(NCCCN1CCCC1=O)C1CCN(c2ncnc3c2sc2cccc(F)c23)CC1 | -0.9 | -0.091 |
| C/C(=C\c1ccco1)C1Nc2cccc3cccc(c23)N1 | 1.7 | / |
| Cc1ccc(C(=O)NCC(=O)N2CCN(c3ccccc3)CC2)cc1 | 2.7 | -1.23 |
| O=C(CCCn1c(=O)c2cccn2c2ccccc21)Nc1ccccc1F | -0.7 | 0.119 |
| Cc1sc(/N=C/N(C)C)c(C(=O)c2ccc(Cl)cc2)c1C | 0.7 | / |
| O=C(CN1CCN(Cc2ccccc2)CC1)N1CCCc2c1c(=O)oc1ccc(O)cc21 | -0.1 | 0.0585 |

Additional compounds:
| Compound | BasE inh | LANA-nucl inh |
| --- | --- | --- |
| CCN1CCSc2ccc(C(=O)Nc3ccc(OC)cc3)cc21 | -1.1 | -1.23 |
| NC(=O)COC(=O)c1ccc2ncsc2c1 | 3.6 | / |
| Cc1ccc(Cn2nc(C)c3cc(C(=O)OCC(N)=O)sc32)cc1 | 1.5 | / |
| O=C(NCC1(c2ccccc2)CCCC1)c1ccc(Br)o1 | 0.4 | -0.414 |
| CC(C)c1ccc([C@@H]2Nc3ccc(C(=O)O)cc3[C@@H]3C=CC[C@@H]32)cc1 | 7.7 | / |
| CCC(C)C1Nc2ccc(C(=O)NC3CCCC3)cc2NC1=O (stereo not given) | 0.8 | 0.757 |
| CCOc1nc2sc3c(c2c2ncnn12)CCCC3 | 0.4 | -0.513 |
| Cc1nc(CSc2nc3ccccc3s2)cs1 | -1.1 | -0.032 |
| CCC(C)NC(=O)[C@@H]1CCCN1S(=O)(=O)c1ccccc1C(F)(F)F (stereo not given in full) | 0.0 | / |
| CCN(CC)CCN1C(=O)C(O)=C(C(=O)/C=C/c2ccco2)C1c1ccc(OC)cc1 (stereo not given) | 1.6 | 0.99 |
| O=c1[nH][nH]c(=S)n1-c1ccccc1C(F)(F)F | -1.4 | / |
| Cn1c(CSCCOc2ccccc2)n[nH]c1=S | 4.0 | -1.34 |
| Cc1ccccc1NCCC(=O)NCc1ccccc1F | 3.5 | / |
| CCc1nnsc1C(=O)Nc1ccc(S(=O)(=O)N2CCOCC2)cc1 | 3.1 | -0.099 |
| CCC(C)(C)C1CCC(=NNc2ccccn2)CC1 (stereo not given) | -1.1 | / |

Next section.
| Compound | BasE inh | LANA-nucl inh |
| --- | --- | --- |
| O=C(COC(=O)c1ccc2ccccc2n1)Nc1cc(C(F)(F)F)ccc1N1CCOCC1 | 2.5 | / |
| CC(C)N1CCC2(CC1)N=C(c1ccc3c(c1)OCO3)CC(c1cc(Cl)ccc1O)N2 (stereo not given) | -7.1 | 1.23 |
| O=C(/C=C/c1ccco1)N1CCc2ccccc2C1 | 1.3 | / |
| Cc1cccc(NCC(O)Cn2nnnc2-c2ccccc2)c1 (stereo not given) | 0.1 | -0.017 |
| CCCCC(C(=O)O)N1C(=O)c2ccccc2C1=O (stereo not given) | 0.6 | / |
| Cc1cn(CC(=O)c2ccccc2)c2ccccc12 | -0.2 | 0.172 |
| Oc1cccc2c(NC(=S)NC3CC3)cccc12 | -1.0 | / |
| C#Cc1cccc(-n2nnc(-c3ccccc3)c2C)c1 | 1.3 | 0.459 |
| Cc1nn(CC(=O)NCCCN2CCOCC2)c(=O)c2c1sc1ccccc12 | -0.7 | 0.688 |
| COc1cc(Br)cc(CO)c1O | / | -0.081 |
| O=C1c2ccccc2C(=O)N1SC1CCCCC1 | 1.0 | / |
| CCOC(=O)c1c(-c2ccc(OC)cc2)noc1C | -6.0 | 1.32 |
| CC1CN(C(=O)COC(=O)c2ccc(C(=O)c3ccccc3)cc2)CC(C)O1 (stereo not given) | 1.8 | / |
| Cn1c(-c2ccc(C(=O)c3ccccc3)s2)nc2ccccc21 | 1.3 | 1.17 |
| Cc1ccc(C(OCC(C)(C)C[N+](C)(C)C)c2ccccc2)cc1 (stereo not given) | -0.2 | / |

Further entries follow.
| Compound | BasE inh | LANA-nucl inh |
| --- | --- | --- |
| CCOc1ccccc1CN1CCC(CNC(=O)c2cc(=O)[nH]c3ccc(S(=O)(=O)N4CCCCC4)cc23)CC1 | 1.9 | -1.08 |
| Nn1c(SCc2cccnc2)nncc1=O | -0.3 | 1.39 |
| N#CCSc1ccccc1NC(=O)COc1ccc(-c2nnco2)cc1 | -14.6 | / |
| O=C(O)Cc1cn(Cc2ccc(F)cc2)c2ccccc12 | / | -0.2 |
| CCCc1cc(=O)n2[nH]c(NCc3ccccc3)nc2n1 | -0.3 | -1.14 |
| CCCn1c(C)cc(/C=C(\C#N)C(=O)OCc2nc3ccccc3s2)c1C | 1.0 | / |
| O=C(c1nc2ncccn2n1)N1CCN(c2ccccc2)CC1 | 0.0 | -0.422 |
| CC(CCC(=O)O)C1CC[C@H]2C3CCC4CC(=O)CCC4(C)[C@H]3CC(=O)C12C (stereo not given in full) | 2.4 | / |
| O=C1Nc2ncccc2OC1CCO (stereo not given) | / | -0.181 |
| CC1(C)CC(=O)C=C(SCc2c(Cl)cccc2Cl)S1 | -0.3 | / |
| CC(C)n1c2ccc(Cl)cc2c2nc3ccccc3nc21 | -0.2 | / |
| O=C1c2nc3cc(-c4ccco4)[nH]n3c(=O)c2CN1C1CCCCC1 | 1.8 | -0.779 |
| CC1=CCC2C(=O)N(C(CC(C)C)C(=O)O)C(=O)C2C1 (stereo not given) | 6.2 | -0.429 |
| Fc1ccc(CSc2ncnc3c2oc2ccccc23)cc1 | -2.7 | 1.31 |
| CCCCn1c(COc2cc(C)cc(C)c2)nc2cc(S(N)(=O)=O)ccc21 | 1.5 | / |

New compounds follow:
| Compound | BasE inh | LANA-nucl inh |
| --- | --- | --- |
| O=C(CC(Sc1ccccc1)c1ccc2c(c1)OCO2)c1ccco1 (stereo not given) | 0.7 | -0.425 |
| O=C(CC(=O)N=Nc1c(O)[nH]c2ccccc12)N=Nc1c(O)[nH]c2ccccc12 | -0.7 | 0.272 |
| CC1(C)S[C@@H]2C(N3C(=O)[C@@H](c4ccccc4)NC3(C)C)C(=O)N2[C@H]1C(=O)O (stereo not given in full) | 3.5 | -0.137&0.313 |
| O=c1c2ccccc2[nH]c(=S)n1CC1CCCC1 | -0.1 | -0.671 |
| O=C(CCc1nc2ccccc2o1)Nc1ccccc1C(=O)NC1CCCC1 | 1.0 | / |
| Cc1ccc(-n2c(C)cc(/C=N/NC3CCS(=O)(=O)C3)c2C)cc1 (stereo not given) | -7.7 | / |
| N#Cc1c(NC(=O)COC(=O)c2ccccc2)oc(-c2ccccc2)c1-c1ccccc1 | 0.9 | / |
| CCN(Cc1ccccc1)C(=O)Cn1c(=O)cc(C)c2c(C)nn(C)c21 | -1.7 | 0.147 |
| NC(=O)c1cccc(S(=O)(=O)N2CCCCC2)c1 | -0.2 | -0.336 |
| O=C(NCc1cccnc1)c1cc(-c2ccccc2F)no1 | -3.5 | -0.53 |
| Cc1ccccc1OCCn1cc(/C=C(\C#N)C(=O)NC2CC2)c2ccccc21 | -4.2 | 0.505 |
| CCCSc1ccc(N)nc1 | 2.9 | -0.446 |
| CC(C)N(CCc1ccncc1)C(=O)Nc1ccc(Cl)c(Cl)c1 | -0.8 | -0.86 |
| CC1CNc2ccccc2NC1=O (stereo not given) | -1.1 | -0.946 |
| COc1ccc(CN2CCCC2)cc1OC | 1.5 | -0.606 |

Later entries
| Compound | BasE inh | LANA-nucl inh |
| --- | --- | --- |
| C/C(=N\NC(=O)c1ccc(N)cc1)C(C)(C)C | 1.9 | -0.168 |
| O=C1Nc2ccccc2/C1=C/c1cccnc1 | 1.9 | 0.0955 |
| CC(=O)N1c2ccc(S(=O)(=O)N3CCCC3C(=O)NCc3ccc4c(c3)OCO4)cc2CC1C (stereo not given) | 0.4 | -2.03 |
| O=c1c(Cc2cc(Cl)cc(Cl)c2O)c(O)nc2n1CCCS2 | 7.6 | / |
| CCc1cccc2c1=NC(=O)C=2c1c(C)[nH]n(-c2ccccc2)c1=O | -0.7 | 0.365 |
| CC(=O)Nc1ccc(Cl)c(Cl)c1 | -0.6 | / |
| O=C(O)CC1S/C(=N/N=C2\CSC(=O)N2)NC1=O (stereo not given) | 1.3 | 2.03 |
| O=C(O/N=C1\CCCCC1Cn1ccnc1)c1ccc(Cl)cc1 (stereo not given) | 2.5 | 0.368 |
| CN1CCN(CC(=O)Nc2ccccc2)CC1 | 1.2 | -0.723 |
| COc1ccc(S(=O)(=O)N2CCN(CC(=O)Nc3ccc(OC)cc3OC)CC2)cc1 | -0.8 | -0.306 |
| CC1CCN(C(=O)CSc2nc3ccccc3c(=O)[nH]2)CC1 | 1.1 | -1.51 |
| C=CCc1c(C)c(C#N)c2nc3ccccc3n2c1NCCc1ccc(OC)c(OC)c1 | -3.4 | / |
| CCCCC(=O)C1C(=O)CC(c2ccccc2)CC1=O (stereo not given) | 1.1 | 0.498 |
| COc1ccc(C2=CC(=O)OC3(CCCCC3)O2)cc1 | 1.5 | / |
| CC(C)(C)C(=O)CSc1nc2[nH]c(=O)[nH]c(=O)c2s1 | -1.7 | -0.139 |

Two entries picked at random from the list so far, as already listed:
| Compound | BasE inh | LANA-nucl inh |
| --- | --- | --- |
| CC(=O)Nc1ccc(Cl)c(Cl)c1 | -0.6 | / |
| CC(C)(C)C(=O)CSc1nc2[nH]c(=O)[nH]c(=O)c2s1 | -1.7 | -0.139 |

Further records.
| Compound | BasE inh | LANA-nucl inh |
| --- | --- | --- |
| O=C(/C=C/c1cccc(Cl)c1)NCc1ccncc1 | 0.1 | -0.853 |
| O=S(=O)(c1ccccc1)c1nc(-c2ccccc2)oc1N1CCCC1 | 2.5 | -0.243 |
| N#Cc1cc2cc3c(cc2nc1SCC(=O)N1CCN(c2ccc(F)cc2)CC1)OCCO3 | 0.8 | -0.265 |
| COc1ccc(CNC(=O)C(NS(=O)(=O)c2cccc3nsnc23)C(C)C)cc1 (stereo not given) | 3.4 | -1.48 |
| C=CCC1c2cccc(C(=O)O)c2C(=O)N1c1cccc(OC)c1 (stereo not given) | 0.6 | / |
| NC(=S)COc1ccc(F)cc1 | 1.4 | / |
| O=C(O)c1occc1-c1ccccc1 | -0.1 | / |
| COc1ccc(N(Cc2cc3ccc(C)cc3[nH]c2=O)C(=O)C(C)C)cc1 | 0.2 | -0.581 |
| O=C(O)CCC(=O)N1CCN(c2nc(-c3ccccc3Cl)c3cc(Br)ccc3n2)CC1 | -1.0 | 0.94 |
| CCc1ccccc1Nc1cc(C(=O)NCc2ccco2)c2ccccc2n1 | 0.0 | 1.01 |
| CC(C)N(C(=O)CSc1cccc[n+]1[O-])c1ccccc1 | 0.8 | / |
| CC(C)Oc1ccc(CNC(=O)Oc2ccccc2)cc1 | 3.0 | -0.675 |
| CCCn1nnnc1COC(=O)CSc1cc(C)c2ccccc2n1 | 3.0 | / |
| Cc1cc(N2CCCC2)n2c(nc3ccccc32)c1C#N | 0.4 | / |
| CCCn1c(N)c(C(=O)CSc2ccc(S(=O)(=O)N3CCN(C)CC3)cn2)c(=O)[nH]c1=O | 2.9 | / |

Continued.
| Compound | BasE inh | LANA-nucl inh |
| --- | --- | --- |
| O=C(Cc1c(F)cccc1Cl)NC(=O)Nc1ccc(F)c(Cl)c1 | -1.1 | / |
| S=C(NCc1ccco1)NNC(=S)Nc1ccc(Cl)cc1 | 2.5 | 0.743 |
| CN(C)C(=O)CN1CCN(Cc2nc3c(Br)cc(Br)cc3c(=O)[nH]2)CC1 | 1.3 | / |
| CCCCn1c(COc2ccccc2C#N)nc2cc(S(N)(=O)=O)ccc21 | 0.8 | / |
| COC(=O)c1cc2sc(Cl)cc2n1CC(=O)Nc1ccc(C)cc1C | 3.8 | -0.1 |
| Cc1ccc(C)n1-c1cccc2cccnc12 | 2.7 | 1.31 |
| Cc1ccc(N2C(=O)CC(N3CCSCC3)C2=O)c(C)c1 (stereo not given) | / | -0.687 |
| COc1cc(C)nc(SCC(N)=O)n1 | -0.1 | / |
| CC(=O)N1CCN(S(=O)(=O)c2cccc(C(=O)NC3CCCCCC3)c2)CC1 | 0.8 | / |
| CC1(C)Cc2c(c(N3CCOCC3)nc3oc(C(=O)c4ccccc4)c(N)c23)CO1 | 2.2 | -0.108 |
| N#CCSc1ncnc2cc(-c3ccc(Cl)cc3)sc12 | -0.9 | / |
| C/C(=N\OC(=O)c1ccc(C(F)(F)F)cc1)c1cc[nH]c1 | 1.5 | -0.356 |

Full records, quoted from the list. Order of values: BasE inh, LANA-nucl inh
CC(=O)N1CCN(S(=O)(=O)c2cccc(C(=O)NC3CCCCCC3)c2)CC1 as listed: 0.8, /
CCCCn1c(COc2ccccc2C#N)nc2cc(S(N)(=O)=O)ccc21 as listed: 0.8, /
C/C(=N\OC(=O)c1ccc(C(F)(F)F)cc1)c1cc[nH]c1 as listed: 1.5, -0.356
CN(C)C(=O)CN1CCN(Cc2nc3c(Br)cc(Br)cc3c(=O)[nH]2)CC1 as listed: 1.3, /
Cc1ccc(C)n1-c1cccc2cccnc12 as listed: 2.7, 1.31

Screening results from PubChem.
